Compound activity deposited in PubChem by National Center for Advancing Translational Sciences (NCATS).
gsp agonist: qHTS for Agonist of gsp, the Etiologic Mutation Responsible for Fibrous Dysplasia/McCune-Albright Syndrome: qHTS. Potency, µM (highest dose often 76.9 µM), without a hit: at the highest dose activation (cAMP increase), hits mostly activators. AID 624287, 2012. gsp mutant cells, cAMP HTRF, 30 min; control for the full effect not named in the record. hit rate 0.13% among 340,000; active = well fitted activation curve with a large enough effect; inconclusive = small, poorly fitted or top-dose-only effect, or another doubt; inactive = no such curve, though single readings can be large or run the other way; cell line not stated here;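 also: phosphodiesterase inhibitor Ro 20-1724 added with compounds to block cAMP breakdown; potency is read from the fitted curve at half-maximal effect; nearly all actives have a fitted effect of over 60% in size; about a fifth of the inactives were tested at one dose only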
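Cells stably selected in G418 were plated at 2000/well, grown 16-24 hr, then given compounds in DMSO with the PDE inhibitor […] (300 uM solution added) for 30 min at 37C; cAMP was read by HTRF.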
D2 ag: Beta-Arrestin HTS for Positive Allosteric Modulators of the Human D2 Dopamine Receptor: Agonists. D(2) dopamine receptor (Homo sapiens), P14416. DiscoveRx PathHunter D2 beta-arrestin, luminescence, 90 min; 100% = 57 uM dopamine signal. activation, % (test concentration not listed). hit rate 0.084% among 360,000. AID 624465, 2012; in the data active = activation above about 40%; inconclusive = about 15% to 40%; inactive = below about 15%; also: compound concentration not given in the record; the text of the record calls up to 30% inactive
Target sequence (P14416 whole entry, looked up): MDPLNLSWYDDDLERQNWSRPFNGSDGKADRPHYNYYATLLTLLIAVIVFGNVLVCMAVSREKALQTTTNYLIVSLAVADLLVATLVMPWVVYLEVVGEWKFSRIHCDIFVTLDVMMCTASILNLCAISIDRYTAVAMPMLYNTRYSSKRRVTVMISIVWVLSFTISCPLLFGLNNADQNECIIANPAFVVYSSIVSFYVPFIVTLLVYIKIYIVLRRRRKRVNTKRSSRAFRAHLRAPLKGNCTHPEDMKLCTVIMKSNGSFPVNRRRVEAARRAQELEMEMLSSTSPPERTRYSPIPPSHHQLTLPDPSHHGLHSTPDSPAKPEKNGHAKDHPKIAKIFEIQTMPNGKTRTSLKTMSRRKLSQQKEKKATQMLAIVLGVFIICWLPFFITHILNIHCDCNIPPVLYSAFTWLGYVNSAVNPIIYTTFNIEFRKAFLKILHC
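DiscoveRx PathHunter D2 beta-arrestin cells (2,100/well) attached overnight, then compound-stimulated 90 min at 37 C in HBSS/10 mM HEPES/0.1% Tween-20 buffer; beta-galactosidase complementation read by luminescence after 1 h at ambient temperature. Dopamine 57 uM final (EC100) as control.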
gsp antag: qHTS for Antagonists of gsp, the Etiologic Mutation Responsible for Fibrous Dysplasia/McCune-Albright Syndrome: qHTS; Potency, µM (highest dose often 76.9 µM), inactives show at the highest dose activity change, negative = inhibition, usual class: inhibitors; AID 624288, 2012; gsp-mutant cells, cAMP HTRF, 30 min; control for the full effect not named in the record; hit rate 0.4% among 340,000; active = falling curve of any shape with a large fitted effect; inconclusive = falling curve, mostly with a smaller effect; inactive = flat or rising curve; cell line not stated here;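 also: intracellular cAMP measured with PDE inhibitor Ro 20-1724 present during compound exposure; potency is read from the fitted curve at half-maximal effect; % is scaled to controls: 0 for no effect and ±100 for the full control effect; nearly all actives have a fitted effect of over 65% in size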
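Cells in G418 medium, seeded 16-24 h, 37C; buffer exchange to DPBS + 1 mM CaCl2, 0.5 mM MgCl2, 0.05% BSA; cpds in DMSO + […] (300 uM stock), 30 min 37C; HTRF cAMP detection.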
CtBP-E1A blk: qHTS Assay for Inhibitors of the CtBP/E1A Interaction; hit rate 0.49% among 340,000; activity change, % (concentration not given with the values); CtBP / adenovirus E1A interaction (AlphaScreen); AlphaScreen GST-E1A/His-CtBP binding, 1536-well; active compounds read low; control for the full effect not named in the record; in the data active means activity change below about -65%; inconclusive means about -30% to -65%; inactive means above about -30%; also: % is scaled to controls: 0 for no effect and ±100 for the full control effect
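Homogeneous bead-based format: GST-tagged E1A captured on glutathione donor beads, His-tagged CtBP on nickel acceptor beads; compounds precede bead addition by 2 h at 37 °C.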
Six1-Eya2 inh: qHTS Assay for Inhibitors of the Six1/Eya2 Interaction; Homeobox protein SIX1 (Homo sapiens) + Protein phosphatase EYA2 (Homo sapiens), …; AID 651725, 2012; AlphaScreen GST-Six1/His-Eya2 binding, biochemical; active compounds read low; control for the full effect not named in the record; hit rate 0.56% among 360,000; activity change, % (no concentration beside the values); in the data active = activity change below about -65%; inconclusive = about -30% to -65%; inactive = above about -30%; also: % is scaled to controls: 0 for no effect and ±100 for the full control effect
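AlphaScreen with GST-Six1 and His-Eya2 (5X mix: 250 nM and 500 nM), glutathione donor and nickel acceptor beads; buffer 50 mM Tris pH 8.0, 300 mM NaCl, 1 mM TCEP; 1 h at 37 C in the dark.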
D2 PAM: Beta-Arrestin HTS for Positive Allosteric Modulators of the Human D2 Dopamine Receptor: Potentiators. potentiation, % (concentration not given with the values). hit rate 0.23% among 360,000. D(2) dopamine receptor (Homo sapiens), P14416. DiscoveRx D2 beta-arrestin cells, luminescence, 90 min; 100% = 57 uM dopamine signal. AID 624464, 2012; active = potentiation of 50% or more; inconclusive = 30% to 50%; inactive = 30% or less;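 also: compound concentration not given in the record; tested on top of an EC20 dose of dopamine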
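D2 cells co-treated with compound plus 50 nM dopamine (EC20) for 90 min at 37 deg C to detect potentiation. Beta-arrestin recruitment was read as enzyme-fragment luminescence after 1 h at ambient temperature. Full response was set by 57 uM dopamine.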
Starred values were filed as active, the others as inactive; u = inconclusive; x = no result given; & = joins results of further samples; [ ] = dose if it differs, or a comment.

SMILES	gsp agonist	D2 ag	gsp antag	CtBP-E1A blk	Six1-Eya2 inh	D2 PAM
COc1cc(/C=N/O)ccc1Oc1cnccn1	-2%[15.4 µM]	-2.1	-3%	-2	-9	-7
O=C(CN1CCCC1)NCc1ccccc1	22%	1.0	2%	x	4	0
O=C(c1cc(Cl)nc2ccccc12)N1CCN(S(=O)(=O)c2ccccc2[N+](=O)[O-])CC1	12%	-0.7	-19%	-2	-9	19
CCc1ccc(C(=O)NNC(=O)c2cccc(S(=O)(=O)N3CCN(C)CC3)c2)cc1	-11%	0.1	4%	1	3	-18
COc1ccc(N2C(=O)Cc3c2nc(N)c(C#N)c3N)cc1	18%[15.4 µM]	2.3	9%	0	4	-4
Cn1cc(C(=O)N/N=C/c2ccc([N+](=O)[O-])cc2)c2ccccc21	4%[15.4 µM]	0.1	7%	1	-2	-1
O=c1c2c3nc4ccccc4nc3n(/N=C/c3ccccn3)c2ncn1-c1ccccc1	-7%[15.4 µM]	0.7	-16%	u	u	-2
CC1CN(C2CCCCC2)C(=S)N(c2ccccc2)C1=O (stereo not drawn)	-12%	-1.5	-3%	3	10	-2
CCOC(=O)c1c2c3c(cccc3[nH]c1=O)C(=O)c1ccccc1-2	-1%[15.4 µM]	0.3	8%	u	u	-1
C[C@H](CO)N1C[C@H](C)[C@@H](CN(C)Cc2ccc(-c3ccccc3)cc2)Oc2c(NC(=O)Nc3ccc(C(F)(F)F)cc3)cccc2C1=O	-13%	1.6	0%	0	-1	3
O=C(O)c1cccnc1SCc1ccccc1Cl	-14%[15.4 µM]	3.8	-15%	2	0	14
COC(=O)c1ccc(/C=N\NC(=O)c2ccc(C)cc2Cl)cc1	-4%	2.7	0%	-1	-4	-14
COCCNC(=O)C(C)N(c1ccc(Oc2ccccc2)cc1)S(C)(=O)=O (stereo not drawn)	-6%	-2.6	3%	6	10	-10
CCOc1cc(/C=C2/NC(=O)N(Cc3ccccc3F)C2=O)ccc1O	u	4.7	-28%	-22	-12	12
COc1ccc(OC2C(=O)N(c3ccc(F)cc3)C2c2ccc(OC)c(OC)c2)cc1 (stereo not drawn)	-1%	-1.3	-4%	6	-8	-23
COc1ccccc1CNC(=O)CCc1c(C)nc2cc(-c3ccccc3OC)nn2c1C	-20%[15.4 µM]	-2.4	-14%	-6	-8	-5
O=C(O)CC(NC(=S)NCc1ccccc1)C(=O)O (stereo not drawn)	-48%[inhibitor]	-6.5	10%	1	0	-24
COCC(C)NC(=O)c1cc(-c2cccc(OC)c2)on1 (stereo not drawn)	-34%[inhibitor]	-1.7	-14%	-1	0	6
O=C(/C=C/c1ccccc1Cl)Nc1ccc(S(=O)(=O)Nc2ncccn2)cc1	-1%	7.4	-7%	-2	-8	-9
CC1(C(=O)NS(=O)(=O)c2ccc(C#N)cc2)CCN1C(=O)CC1CCCC1 (stereo not drawn)	x	9.6	x	10	9	0
CCOC(CNCc1cc(C)c2[nH]c3ccccc3c2c1C)OCC	4%[15.4 µM]	-1.0	-1%	-8	0	-36
CCN(CC)C(=O)CNC(=S)N(CCCN1CCOCC1)Cc1cccs1	14%	3.6	15%	11	4	3
COC(=O)c1cccc(CSc2nc(-c3ccccc3)c(C#N)c(=O)[nH]2)c1	u	-0.3	-12%	1	7	-8
O=C(CCSc1ccc(Br)cc1)c1ccc(O)cc1	49%	-7.7	-3%	x	-2	-9
O=C(NCCc1ccccc1)c1ccc2c(c1)S(=O)(=O)c1ccccc1C2=O	-17%	8.4	-1%	-21	-18	7
Nc1nc(=S)n(-c2ccccc2)[nH]1	8%[15.4 µM]	5.6	-17%	16	4	-10
CCn1ncc(Br)c1C(=O)Nc1ccc(-c2ccno2)cc1	u	-7.3	8%	0	0	-2
O=C(c1ccccc1)N1CCN(c2cc(-c3ccccc3)nc3cc(-c4cccc(Cl)c4)nn23)CC1	u	-9.0	x	1	4	6
Cc1ccc(N(CC(=O)NCc2ccc3c(c2)OCO3)S(C)(=O)=O)cc1	3%	-3.5	2%	-1	-1	-5
Cc1cc(OC(C)C(=O)NCC2CCCO2)cc(C)c1Cl (stereo not drawn)	-20%	0.9	3%	-2	1	-26
O=S(=O)(c1ccc(Cl)cc1)N1CCN(c2nc(-c3cccs3)nc3ccccc23)CC1	0%	-4.1	3%	-1&0	2&5	-25&9
CCOc1ccc(NC(=O)Nc2ccc(NC(C)=O)cc2)cc1	-17%[15.4 µM]	-1.4	17%	10	5	2
COc1ccccc1NS(=O)(=O)c1cc(NC(=O)c2ccc(=O)[nH]c2)ccc1N1CCOCC1	-11%	0.9	-3%	u	u	-16
O=C(N[C@@H](c1ccccc1)[C@H](O)c1ccccc1)[C@@H]1CCCN1C(=O)OCc1ccccc1	1%	1.7	9%	3	1	0
CC(C)c1ccc(NC(=S)NNC(=O)c2cccs2)cc1	9%[15.4 µM]	-4.3	x	1	0	-13
COc1ccccc1Nc1nc2nonc2nc1N1CCC(C)CC1	-27%	-4.5	-21%	-5	4	-22
COc1ccc(Cn2nnc3c(=O)[nH]c(C4CCN(S(=O)(=O)c5ccc(C)cc5)CC4)nc32)cc1	-41%[inhibitor]	-2.0	-4%	x	7	-1
Cc1ccc(S(=O)(=O)NC(=O)c2cccc(C)c2)cc1	29%	-1.8	-1%	3	4	5
CCN(CC(=O)NCc1ccc(Cl)cc1)C(=O)CSc1cc(C)ccc1C	-11%[15.4 µM]	3.4	-13%	-5	5	-16
O=C(O)c1ccc(-n2c(/C=C/c3ccccc3)nc3ccccc3c2=O)cc1	16%	2.3	u	u	8	-4
Cc1ccccc1NC(=O)COc1ccccc1C	1%	-5.4	5%	1	15	-3
COc1ccc(NC2CCCN(C(=O)CCn3cccn3)C2)cc1 (stereo not drawn)	4%	-3.3	1%	-2	-3	-2
Cc1nc(C)c(C(=O)Nc2cccc(C)c2C)s1	-10%	0.8	9%	0	6	4
COc1cccc(/C=C/C(=O)N2CCN(S(=O)(=O)c3ccccc3)CC2)c1	4%	-0.4	x	6	2	-1
COc1ccc(-n2ncc3c(N4CCN(c5cc(C)ccc5C)CC4)ncnc32)cc1	7%	-6.9	-4%	-3	11	-27
Cn1c(=O)c2[nH]c(C3CCCC3)nc2n(C)c1=O	x	-1.4	-2%	2	0	18
O=C(NCc1cccc(C(F)(F)F)c1)N1CCN(S(=O)(=O)c2ccccc2F)CC1	-9%[15.4 µM]	-0.6	2%	-7	-2	8
COc1cc2c(cc1OC)C(C)N(C(=O)c1c(-c3ccccc3)noc1C)CC2 (stereo not drawn)	0%	-4.7	1%	x	5	-24
CCC1=NN(C(=O)C(=O)Nc2ccc(Br)cc2)C(O)(C(F)(F)F)C1 (stereo not drawn)	u	-9.1	u	33	2	-15
CC1Oc2ccc(C#N)cc2N(Cc2ccc(F)cc2)C1=O (stereo not drawn)	x	0.8	x	2	1	1
Continuation.
SMILES	gsp agonist	D2 ag	gsp antag	CtBP-E1A blk	Six1-Eya2 inh	D2 PAM
O=NN(Cc1cccnc1)Cc1cccnc1	x	-5.3	x	10	4	-5
COCCCN1C(=O)C(=O)/C(=C(/O)c2ccc(S(=O)(=O)N3CCCCC3)cc2)C1c1cccc(OC)c1 (stereo not drawn)	u	1.3	-8%	x	-7	-4
CCCCCc1ccc(-c2cn(CC3CCCCC3)nn2)cc1	-27%	-2.1	9%	9	5	-7
CCOC(=O)C1=NS(=O)(=O)NC(C)=C1	x	-6.2	12%	2	8	-2
CC(C)(C)c1ccc(OCC(=O)N/N=C/c2ccsc2)cc1	-1%[15.4 µM]	0.4	-13%	-2	-1	-9
CCC1=C(OC(=O)N(CC)CC)N2C(=O)OC(=NCCc3c[nH]c4ccccc34)[C@]2(Cc2ccccc2)[C@H]2C1=CC[C@H]1C(=O)N(CC)C(=O)[C@H]12	x	-0.4	-20%	-6	-10	0
CCOc1cc(C=O)c(Br)cc1OC1CCCC1	31%	-3.7	8%	10	12	-7
CC(=O)N1CCN=C1SCc1ccc(F)cc1	4%	0.0	3%	13	-2	-5
CNC[C@H]1Oc2cc(Br)ccc2S(=O)(=O)N([C@@H](C)CO)C[C@@H]1C	14%	3.2	x	4	18	-3
Cc1ccccc1-n1c(SCC(=O)N(C)C2CCS(=O)(=O)C2)nnc1-c1ccncc1 (stereo not drawn)	-31%[15.4 µM]	-0.9	8%	-12	-4	1

Results in D2 PAM and CtBP-E1A blk (four entries from above):
Structure | D2 PAM | CtBP-E1A blk
CC(C)(C)c1ccc(OCC(=O)N/N=C/c2ccsc2)cc1 | -9 | -2
CCC1=C(OC(=O)N(CC)CC)N2C(=O)OC(=NCCc3c[nH]c4ccccc34)[C@]2(Cc2ccccc2)[C@H]2C1=CC[C@H]1C(=O)N(CC)C(=O)[C@H]12 | 0 | -6
CCOc1cc(C=O)c(Br)cc1OC1CCCC1 | -7 | 10
CC(=O)N1CCN=C1SCc1ccc(F)cc1 | -5 | 13

Next section
SMILES	gsp agonist	D2 ag	gsp antag	CtBP-E1A blk	Six1-Eya2 inh	D2 PAM
Cc1ccc(-c2cc(C(=O)N/N=C/c3ccc([N+](=O)[O-])o3)c3ccccc3n2)o1	24%	10	-22%	-24	u	-2
Cn1c(=O)[nH]c(=O)c2c1nc(SCCN1CCCCC1)n2Cc1ccccc1	0%	-3.7	1%	-2	1	-35
Cc1ccc(C)c(-n2cc[nH]c2=S)c1	-11%	-2.8	10%	4	8	9
CC(C)c1onc(C(=O)NCc2cccs2)c1[N+](=O)[O-]	u	-6.8	7%	x	5	-6
CC(NC(=O)CN(C)S(=O)(=O)c1cccc2nsnc12)c1ccccc1 (stereo not drawn)	17%	-2.6	0%	2	-1	-8
Cc1cccc(NC(=O)CCn2nc(C)cc2C)c1	-15%	-3.2	-4%	4	-2	-11
CCOC(=O)C1(C#N)C(=O)CSC1=Nc1ccccc1Cl (stereo not drawn)	19%	-5.6	x	-2	1	-7
COc1ccc(NC(=O)CN(C)C(=O)CNC(=O)c2ccc(C)s2)cc1	-4%	-6.5	4%	-1	1	-16
CCOC(=O)C1CCN(S(=O)(=O)c2ccc3oc(=O)ccc3c2)CC1	15%[15.4 µM]	-1.4	-4%	23	0	-7
Cc1cc(=O)oc2cc(NC(=O)c3cccc(F)c3)ccc12	-7%[15.4 µM]	-0.1	-11%	5	-4	-4
